Source: PubChem BioAssay (Broad Institute)
Vaccinia stage: blocks a specific stage of Vaccinia orthopoxvirus infection, primary screen, cell-based, single point; Vaccinia-infected cells, mCherry/Venus stage reporter fluorescence; active compounds read low; some inactives read as strong as hits; 89,000 tested, 0.01% active; activity change (mCherry), % (no concentration beside the values);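 active means mCherry past -33% and 40 or more points under the early reporter, replicates agreeing; inconclusive means past -33% without that gap or agreement; tested in A549 cells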;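 further: scaled between vehicle wells and reference inhibitor wells; 23 nL library stock went into each well; one replicate is shown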
Vaccinia stage Venus: second read-out of Vaccinia stage, no call of its own (marks repeat the call); activity change (Venus), %; measured here: Venus reporter, other viral stage;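 negative = less Venus signal; first of two replicates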
* = called active by the depositor.

Screening Cc1ccc(S(=O)(=O)Nc2ccc3c(c2)C(=O)N([C@H](C)CO)C[C@H](C)[C@@H](CN(C)C(=O)Nc2ccccc2)OCCCC[C@@H](C)O3)cc1 returned Vaccinia stage 11.5 and Vaccinia stage Venus 5.6.
For CCC(=O)N[C@H]1CC[C@H](CCNS(=O)(=O)c2ccc(Cl)cc2)O[C@H]1CO the results were Vaccinia stage -0.6 and Vaccinia stage Venus 1.8.
For C[C@H](CO)N1C[C@H](C)[C@@H](CN(C)Cc2ccccc2)Oc2c(NC(=O)Nc3ccc(F)cc3)cccc2C1=O the results were Vaccinia stage 1.5 and Vaccinia stage Venus 7.2.
Screening O=C(Cc1ccccc1)N1CC[C@@H]2[C@H]1c1cc(-c3ccccc3)ccc1N[C@@H]2CO returned Vaccinia stage -19.9 and Vaccinia stage Venus -4.9.
`C[C@@H](NC(=O)[C@@H]1[C@@H](CO)[C@@H]2Cn3c(cccc3=O)[C@H]1N2Cc1ccccc1)c1ccccc1` gave Vaccinia stage 11.9 and Vaccinia stage Venus 9.7.
Screening Cc1ccccc1S(=O)(=O)N[C@@H]1CC[C@H](CCNS(=O)(=O)c2cccc(F)c2)O[C@H]1CO returned Vaccinia stage -9.6 and Vaccinia stage Venus -4.2.
`COc1ccc(NC(=O)Nc2ccc3c(c2)CC(=O)N([C@@H](C)CO)C[C@H](C)[C@H](CN(C)S(=O)(=O)c2ccc(OC)cc2)O3)cc1` gave Vaccinia stage -19.3 and Vaccinia stage Venus -2.9.
`C[C@H](CO)N1C[C@H](C)[C@H](CN(C)Cc2cncnc2)Oc2ncc(-c3ccc(C#N)cc3)cc2C1=O` gave Vaccinia stage 25.7 and Vaccinia stage Venus 8.9.
Screening C[C@@H](NC(=O)[C@H]1[C@H](CO)[C@H]2Cn3c(ccc(-c4ccccc4)c3=O)[C@H]2N1C)c1ccccc1 returned Vaccinia stage 4.7 and Vaccinia stage Venus 2.2.
Screening C[C@H]1CN([C@@H](C)CO)S(=O)(=O)c2ccc(C#Cc3ccccc3)cc2O[C@H]1CN(C)S(=O)(=O)c1cn(C)cn1 returned Vaccinia stage inconclusive.
For O=C(C[C@@H]1C=C[C@@H](NC(=O)Nc2ccccc2)[C@H](CO)O1)NCc1ccccn1 the results were Vaccinia stage -0.7 and Vaccinia stage Venus 4.7.
Screening CC(C)NC(=O)Nc1ccc2c(c1)CC(=O)N([C@@H](C)CO)C[C@@H](C)[C@H](CN(C)Cc1ccc(C(=O)Nc3ccccc3N)cc1)O2 returned Vaccinia stage 13.5 and Vaccinia stage Venus 9.2.
`COCC#Cc1ccc2c(c1)O[C@H](CN(C)S(=O)(=O)c1cccc(OC)c1)[C@H](C)CN([C@@H](C)CO)S2(=O)=O` gave Vaccinia stage 5.3 and Vaccinia stage Venus -7.0.
Screening COC(=O)C[C@H]1CC[C@H]2[C@H](COc3ccc(NC(=O)C4CCOCC4)cc3C(=O)N2C)O1 returned Vaccinia stage 4.9 and Vaccinia stage Venus 7.6.
Screening O=C(C[C@H]1C[C@H]2c3cc(NC(=O)Nc4ccccc4F)ccc3O[C@H]2[C@H](CO)O1)NCCc1ccccc1 returned Vaccinia stage 5.2 and Vaccinia stage Venus 8.9.
COc1ccc(S(=O)(=O)N(C)C[C@H]2OCCCC[C@@H](C)Oc3ccc(NS(=O)(=O)c4ccc(F)cc4)cc3C(=O)N([C@H](C)CO)C[C@@H]2C)cc1 was read as Vaccinia stage -17.3 and Vaccinia stage Venus -20.6.
`COc1ccc(NC(=O)Nc2ccc3c(c2)C(=O)N([C@@H](C)CO)C[C@@H](C)[C@H](CN(C)S(=O)(=O)c2ccccc2)O3)cc1` gave Vaccinia stage 7.3 and Vaccinia stage Venus 4.1.
For CN(C)CC(=O)N1[C@@H](C#N)[C@H](c2ccccc2-c2ccccc2F)[C@@H]1CO the results were Vaccinia stage 11.3 and Vaccinia stage Venus 8.6.
`C[C@H]1CN([C@@H](C)CO)C(=O)c2cc(NC(=O)Cn3cnnn3)ccc2O[C@@H]1CN(C)C` gave Vaccinia stage 15.1 and Vaccinia stage Venus -1.2.
CC(C)CC#Cc1cnc2c(c1)C(=O)N([C@H](C)CO)C[C@@H](C)[C@H](CN(C)C(=O)C1CCOCC1)O2 was read as Vaccinia stage -9.7 and Vaccinia stage Venus -4.0.
For CN1CCN(C(=O)C[C@H]2CC[C@H]3[C@@H](COC[C@@H](O)CN3C(=O)Nc3cc(Cl)cc(Cl)c3)O2)CC1 the results were Vaccinia stage -3.9 and Vaccinia stage Venus -1.4.
`COc1ccccc1C#Cc1ccc([C@H]2[C@H](C#N)N(C(=O)C3CCCCC3)[C@H]2CO)cc1` gave Vaccinia stage inconclusive.
Screening C[C@H]1CN([C@@H](C)CO)C(=O)c2cc(NC(=O)Nc3ccc(F)cc3)ccc2O[C@@H]1CN(C)C(=O)Nc1ccccc1 returned Vaccinia stage 14.4 and Vaccinia stage Venus 7.7.
Screening C[C@H](CO)N1C[C@H](C)[C@@H](CN(C)Cc2ccc(Cl)c(Cl)c2)OCCCC[C@H](C)Oc2ccc(N(C)C)cc2C1=O returned Vaccinia stage inconclusive.
For C[C@@H]1CN([C@@H](C)CO)C(=O)c2cc(NC(=O)Nc3ccc4c(c3)OCO4)ccc2O[C@@H](C)CCCCO[C@@H]1CN(C)S(=O)(=O)c1ccc(Cl)cc1 the results were Vaccinia stage 11.4 and Vaccinia stage Venus 8.6.
`O=C(C[C@@H]1CC[C@H](NS(=O)(=O)c2ccc(F)cc2)[C@@H](CO)O1)N1CCc2ccccc2C1` gave Vaccinia stage -1.0 and Vaccinia stage Venus -0.5.
`CCN(C[C@@H]1N[C@@H](CO)[C@H]1c1ccc(-c2cccc(F)c2)cc1)C(=O)CN(C)C` gave Vaccinia stage inconclusive.
`COCC#Cc1ccc([C@H]2[C@H](CO)N3C(=O)CN(C(=O)C4CCCCC4)C[C@@H]23)cc1` gave Vaccinia stage 2.6 and Vaccinia stage Venus 8.6.
For CN1c2ccc(C#Cc3cccnc3)cc2[C@H]2[C@H](CCN2S(=O)(=O)c2ccccc2)[C@@H]1CO the results were Vaccinia stage -5.2 and Vaccinia stage Venus -9.2.
`COc1ccc(NC(=O)N(C)C[C@@H]2OCCCC[C@H](C)Oc3ccc(NC(=O)Cc4ccccc4)cc3C(=O)N([C@H](C)CO)C[C@H]2C)cc1` gave Vaccinia stage -9.0 and Vaccinia stage Venus -7.9.

Part of the list above in order of heavy-atom count, rising:
For O=C(C[C@@H]1C=C[C@@H](NC(=O)Nc2ccccc2)[C@H](CO)O1)NCc1ccccn1 the results were Vaccinia stage -0.7 and Vaccinia stage Venus 4.7.
For C[C@H](CO)N1C[C@H](C)[C@@H](CN(C)Cc2ccccc2)Oc2c(NC(=O)Nc3ccc(F)cc3)cccc2C1=O the results were Vaccinia stage 1.5 and Vaccinia stage Venus 7.2.
Screening C[C@H](CO)N1C[C@H](C)[C@@H](CN(C)Cc2ccc(Cl)c(Cl)c2)OCCCC[C@H](C)Oc2ccc(N(C)C)cc2C1=O returned Vaccinia stage inconclusive.
`COc1ccc(NC(=O)Nc2ccc3c(c2)CC(=O)N([C@@H](C)CO)C[C@H](C)[C@H](CN(C)S(=O)(=O)c2ccc(OC)cc2)O3)cc1` gave Vaccinia stage -19.3 and Vaccinia stage Venus -2.9.
COc1ccc(S(=O)(=O)N(C)C[C@H]2OCCCC[C@@H](C)Oc3ccc(NS(=O)(=O)c4ccc(F)cc4)cc3C(=O)N([C@H](C)CO)C[C@@H]2C)cc1 was read as Vaccinia stage -17.3 and Vaccinia stage Venus -20.6.
For C[C@@H]1CN([C@@H](C)CO)C(=O)c2cc(NC(=O)Nc3ccc4c(c3)OCO4)ccc2O[C@@H](C)CCCCO[C@@H]1CN(C)S(=O)(=O)c1ccc(Cl)cc1 the results were Vaccinia stage 11.4 and Vaccinia stage Venus 8.6.

Carrying on:
For CO[C@@H]1CN(C)C(=O)c2cc(NS(=O)(=O)CC(F)(F)F)ccc2OC[C@H](C)NC[C@H]1C the results were Vaccinia stage 4.0 and Vaccinia stage Venus 12.8.
Cc1ccc(S(=O)(=O)Nc2ccc3c(c2)CC(=O)N([C@@H](C)CO)C[C@H](C)[C@@H](CN(C)C(=O)Nc2cccc4ccccc24)O3)cc1 was read as Vaccinia stage 10.2 and Vaccinia stage Venus 4.8.
`CCCC(=O)Nc1ccc2c(c1)C(=O)N(C)[C@H]1CC[C@@H](CC(=O)O)O[C@H]1CO2` gave Vaccinia stage -3.4 and Vaccinia stage Venus -2.3.
`CC(C)[C@@H](C)NC(=O)N(C)C[C@H]1OCc2ccccc2-c2ccccc2C(=O)N([C@H](C)CO)C[C@@H]1C` gave Vaccinia stage 28.6 and Vaccinia stage Venus 1.7.
For CCCN1C[C@H](C)[C@H](OC)CN(C)C(=O)c2cc(NC(=O)Nc3c(C)noc3C)ccc2OC[C@@H]1C the results were Vaccinia stage 7.3 and Vaccinia stage Venus 7.5.
Screening C[C@H]1CCCCO[C@H](CN(C)Cc2ccncc2)[C@@H](C)CN([C@@H](C)CO)C(=O)c2cc(NC(=O)c3ccncc3)ccc2O1 returned Vaccinia stage 12.9 and Vaccinia stage Venus 4.7.
For C[C@H]1CN([C@@H](C)CO)C(=O)c2cc(C#CCN(C)C)cnc2O[C@H]1CN(C)Cc1cccc(C(=O)O)c1 the results were Vaccinia stage 18.6 and Vaccinia stage Venus 17.3.
C[C@H](NC(=O)C[C@@H]1C=C[C@H](NC(=O)c2cccnc2)[C@H](CO)O1)c1ccccc1 was read as Vaccinia stage 5.5 and Vaccinia stage Venus 2.7.
For CCCC#Cc1cnc2c(c1)C(=O)N([C@H](C)CO)C[C@@H](C)[C@@H](CN(C)C(=O)c1ccc(F)cc1)O2 the results were Vaccinia stage -1.0 and Vaccinia stage Venus -1.2.
For CCCNC(=O)C[C@H]1CC[C@@H]2[C@@H](COc3ccc(NC(=O)c4cccc(OC)c4)cc3C(=O)N2C)O1 the results were Vaccinia stage 0.1 and Vaccinia stage Venus 3.0.
Screening C[C@@H]1CN([C@H](C)CO)C(=O)c2cccc(NS(=O)(=O)c3cccs3)c2O[C@@H]1CN(C)S(=O)(=O)c1ccccc1 returned Vaccinia stage 12.1 and Vaccinia stage Venus 12.0.
CN1C(=O)c2cc(NC(=O)C3CC3)ccc2OC[C@H]2O[C@@H](CC(=O)NCCc3ccncc3)CC[C@H]21 was read as Vaccinia stage 3.7 and Vaccinia stage Venus 0.8.
Screening O=C(C[C@@H]1CC[C@@H](NS(=O)(=O)c2ccc(F)cc2)[C@H](CO)O1)NC1CCC1 returned Vaccinia stage 19.5 and Vaccinia stage Venus 16.2.
Screening N#Cc1ccc(-c2ccc3c(c2)[C@H]2[C@H](CCN2C(=O)C2CCCC2)[C@H](CO)N3)cc1 returned Vaccinia stage inconclusive.
For Cc1ccc(-c2ccc3c(c2)O[C@@H](CN(C)Cc2cccnc2)[C@H](C)CN([C@@H](C)CO)S3(=O)=O)cc1 the results were Vaccinia stage -5.0 and Vaccinia stage Venus -12.6.
Screening C[C@H]1CCCCO[C@H](CN(C)Cc2ccncc2)[C@@H](C)CN([C@@H](C)CO)C(=O)c2cc(NC(=O)CCC(F)(F)F)ccc2O1 returned Vaccinia stage -2.6 and Vaccinia stage Venus -1.7.
Screening O=C(Nc1cc(F)ccc1F)N[C@@H]1CC[C@@H](CCn2cc(C3CCCC3)nn2)O[C@H]1CO returned Vaccinia stage 10.5 and Vaccinia stage Venus 11.5.
Cc1ccc(S(=O)(=O)Nc2cccc3c2O[C@H](CN(C)S(=O)(=O)c2ccc(Cl)cc2)[C@@H](C)CN([C@H](C)CO)C3=O)cc1 was read as Vaccinia stage 10.7 and Vaccinia stage Venus 20.7.
C[C@H](NC(=O)C[C@H]1CC[C@@H]2[C@H](COC[C@@H](O)CN2C)O1)c1ccccc1 was read as Vaccinia stage 13.2 and Vaccinia stage Venus 13.5.
C/C=C/c1ccc2c(c1)O[C@H](CN(C)C(=O)c1ccccc1)[C@H](C)CN([C@H](C)CO)S2(=O)=O was read as Vaccinia stage -7.3 and Vaccinia stage Venus -6.4.
Screening CCCNC(=O)N1[C@H](CO)[C@H](c2ccc(-c3cccnc3)cc2)[C@@H]1C#N returned Vaccinia stage 2.8 and Vaccinia stage Venus 0.6.
Screening Cc1cc(C(=O)Nc2cccc3c2O[C@H](CN(C)CC2CCCCC2)[C@@H](C)CN([C@H](C)CO)C3=O)n(C)n1 returned Vaccinia stage -3.2 and Vaccinia stage Venus 3.4.
Screening COc1ccc(NC(=O)N(C)C[C@H]2OCc3ccccc3-c3c(n(C)c4ccccc34)C(=O)N([C@H](C)CO)C[C@@H]2C)c(OC)c1 returned Vaccinia stage inconclusive.
COc1ccc2c3c(n(C)c2c1)[C@@H](CO)N(C(=O)Nc1ccc(F)cc1)CC31CN(Cc2cccnc2)C1 was read as Vaccinia stage inconclusive.
`COc1ccc(C#Cc2cnc3c(c2)C(=O)N([C@@H](C)CO)C[C@H](C)[C@H](CN(C)C(=O)CC2CC2)O3)cc1` gave Vaccinia stage -7.7 and Vaccinia stage Venus -6.5.
`C[C@@H]1CN([C@@H](C)CO)C(=O)c2cc(C#C[C@@H](C)O)cnc2O[C@@H]1CN(C)Cc1cncnc1` gave Vaccinia stage 3.7 and Vaccinia stage Venus 4.1.
Screening COCC(=O)N1CC2(C1)CN(Cc1ccccc1F)[C@H](CO)c1[nH]c3cc(OC)ccc3c12 returned Vaccinia stage 16.1 and Vaccinia stage Venus 5.5.
Screening O=C(C[C@H]1CC[C@H]2[C@@H](COC[C@@H](O)CN2S(=O)(=O)c2ccc(Cl)cc2)O1)NCc1ccc(Cl)c(Cl)c1 returned Vaccinia stage inconclusive.
`C[C@H](NC(=O)C[C@H]1C=C[C@@H](NC(=O)Nc2ccc3c(c2)OCO3)[C@@H](CO)O1)c1ccccc1` gave Vaccinia stage 4.0 and Vaccinia stage Venus -2.4.
For CC(C)NC(=O)N(C)C[C@@H]1Oc2ccc(NC(=O)CCN3CCOCC3)cc2C(=O)N([C@@H](C)CO)C[C@H]1C the results were Vaccinia stage 0.4 and Vaccinia stage Venus 5.3.
C[C@@H]1CN([C@H](C)CO)C(=O)c2cc(NC(=O)Nc3ccccc3)ccc2O[C@@H](C)CCCCO[C@H]1CN(C)Cc1ccc(C(=O)O)cc1 was read as Vaccinia stage 9.3 and Vaccinia stage Venus 13.3.

The list is partial (hit frequency here may not be typical).
